Screens deposited in PubChem BioAssay by National Center for Advancing Translational Sciences (NCATS).
CtBP-E1A inh: blocks the CtBP interaction with E1A. AID 651724. AlphaScreen GST-E1A/His-CtBP binding, 1536-well; stronger effect = lower value; control for the full effect not named in the record. activity change, % (concentration not given with the values). 340,000 compounds, 0.49% hits; in the data active means activity change below about -65%; inconclusive means about -30% to -65%; inactive means above about -30%; note: % is set by controls: 0 for no effect and ±100 for the full control effect
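Homogeneous bead-based format: GST-tagged E1A captured on glutathione donor beads, His-tagged CtBP on nickel acceptor beads; compounds precede bead addition by 2 h at 37 °C.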
Six1-Eya2 blk: inhibitors of human Six1/Eya2 interaction; activity change, % (no concentration beside the values); Q15475+O00167; AlphaScreen GST-Six1/His-Eya2 binding, biochemical; stronger effect = lower value; control for the full effect not named in the record; 360,000 compounds, 0.56% hits; in the data active = activity change below about -65%; inconclusive = about -30% to -65%; inactive = above about -30%; note: % is set by controls: 0 for no effect and ±100 for the full control effect
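Homogeneous AlphaScreen proximity assay pairing GST-Six1 with His-tagged Eya2 (added as 5X mix: 250 nM and 500 nM) in 50 mM Tris pH 8.0, 300 mM NaCl, 1 mM TCEP. Glutathione donor and nickel acceptor beads; 1 h, 37 °C, dark.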
TRPML1 blocker: human mucolipin-1 channel inhibition; Q9GZU1; 390,000 compounds, 0.02% hits; TRPML1-inducible cells, Ca2+ dye fluorescence, FDSS; stronger effect = lower value; inhibition of EC80 agonist-evoked calcium signal; activity change, negative = inhibition, % (concentration not given with the values); in the data active means activity change below about -50%; inconclusive means about -30% to -50%; inactive means above about -30%;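 note: stimulus is agonist 54-4 at its EC80 concentration; % is set by controls: 0 for no effect and ±100 for the full control effect; the text of the record puts the active cut at -80%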
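Calcium fluorescence in TRPML1-DL cells induced overnight with Tet: a 110 s read after compound pin addition, then a 110 s antagonist read after challenge with 54-4 at 4 uM final (EC80).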
TRPV1 potentiator: enhances activation of the human vanilloid receptor TRPV1; Q8NER1; TRPV1-expressing cells, Fluo-8 calcium influx, capsaicin EC20 potentiation; host cell line not named in the record; control for the full effect not named in the record; potentiation, % at 8.33 µM; 320,000 compounds, 0.02% hits; AID 540277; active means potentiation above 80%; inconclusive means 30% to 80%; inactive means below 30%; note: 0% is about no effect
Target sequence (Q8NER1 whole entry, looked up): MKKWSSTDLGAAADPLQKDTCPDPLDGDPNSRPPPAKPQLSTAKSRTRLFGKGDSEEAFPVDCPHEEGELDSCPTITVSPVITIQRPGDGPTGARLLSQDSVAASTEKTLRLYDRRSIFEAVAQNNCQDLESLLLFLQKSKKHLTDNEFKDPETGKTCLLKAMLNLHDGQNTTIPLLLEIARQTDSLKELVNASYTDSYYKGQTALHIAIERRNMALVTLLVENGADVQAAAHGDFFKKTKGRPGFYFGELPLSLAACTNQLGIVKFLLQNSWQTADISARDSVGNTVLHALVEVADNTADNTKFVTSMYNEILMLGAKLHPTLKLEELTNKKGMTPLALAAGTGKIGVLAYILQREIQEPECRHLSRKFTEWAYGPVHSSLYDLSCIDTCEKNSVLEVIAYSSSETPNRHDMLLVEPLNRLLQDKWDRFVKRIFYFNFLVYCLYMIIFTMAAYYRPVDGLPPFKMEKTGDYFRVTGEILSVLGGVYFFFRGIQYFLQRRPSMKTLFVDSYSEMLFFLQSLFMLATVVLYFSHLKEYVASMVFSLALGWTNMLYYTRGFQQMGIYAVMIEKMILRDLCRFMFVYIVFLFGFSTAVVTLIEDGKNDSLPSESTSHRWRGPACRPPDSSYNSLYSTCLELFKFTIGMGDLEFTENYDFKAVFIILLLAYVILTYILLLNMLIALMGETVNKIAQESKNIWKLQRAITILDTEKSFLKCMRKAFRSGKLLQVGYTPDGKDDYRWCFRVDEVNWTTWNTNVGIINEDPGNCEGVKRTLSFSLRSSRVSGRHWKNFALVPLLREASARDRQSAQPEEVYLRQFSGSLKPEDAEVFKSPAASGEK
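Cells expressing TRPV1 were dye-loaded with Fluo-8 and read kinetically: 10 s baseline, 3 min after compound (agonist portion), then 2 min after EC20 capsaicin (allosteric enhancer portion). Calcium-bound dye fluorescence at 480/520 nm.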
TRPML1 agonist: agonists of human TRPML1 channel | 410,000 compounds, 0.12% hits | TRPML1-expressing cells, Ca2+ dye fluorescence, FDSS; host cell line not named in the record; reference of the full effect not given here | AID 624414 | Q9GZU1 | activation, % (test concentration not listed); in the data active = activation above about 50%; inconclusive = about 30% to 50%; inactive = below about 30%; note: 0% is about no effect; the text of the record puts the active cut at 80%
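Agonist activity was taken from a 110 s kinetic Ca2+ dye read on the FDSS after pinning compounds onto TRPML1-DL cells. The cells were seeded at 1,500/well with Tet inducer, incubated about 16 h, then dye-loaded at room temperature.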
D2 potentiator: positive allosteric modulators of human D2 dopamine receptor; P14416; DiscoveRx D2 beta-arrestin cells, luminescence, 90 min; 100% = 57 uM dopamine signal; potentiation, % (concentration not given with the values); 360,000 compounds, 0.23% hits; active = potentiation of 50% or more; inconclusive = 30% to 50%; inactive = 30% or less;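 note: tested on top of an EC20 dose of dopamine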
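PathHunter beta-arrestin assay in DiscoveRx D2 cells. Compounds were added with an EC20 of dopamine (50 nM final) for 90 min at 37 deg C. Luminescence was read 1 h after detection reagent, with 57 uM dopamine as the EC100 control.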
* = called active by the depositor; ? = inconclusive; · = no result given.

SMILES	CtBP-E1A inh	Six1-Eya2 blk	TRPML1 blocker	TRPV1 potentiator	TRPML1 agonist	D2 potentiator
N/C(=N\OC(=O)c1cccs1)c1cccc(Br)c1	6	6	-12	5	0.1	23
CS(=O)(=O)c1ccc(NC(=O)c2cccc(S(=O)(=O)N3CCN(Cc4ccccc4)CC3)c2)cc1	-2	-12	-3	-4	0.4	10
COc1cccc(C(=O)NC2CCSC2=O)c1 (stereo unspecified)	8	0	11	-11	-0.8	1
O=C(CCC(F)(F)F)N1CCCC(N2CCN(c3cccc(Cl)c3)CC2)C1 (stereo unspecified)	0	0	-3	·	0.1	-7
CC1=CC(C)(C)Nc2ccc(OC(=O)CN3C(=O)c4ccccc4C3=O)cc21	-26	?	5	12	0.7	113*
CC(=O)Oc1ccc(C2=NN(c3ccccc3)C(c3ccccc3)C2)cc1 (stereo unspecified)	·	68	-6	12	2.0	-10
Cc1ccccc1C1NC(=S)NC2=C1C(=O)CC(C)(C)C2 (stereo unspecified)	0	3	13	-2	1.6	1
CC(C)(C)C(=O)Nc1cc(C(F)(F)F)ccc1-n1ccnc1	0	-8	-15	-1	0.4	1
O=C(CCc1nc2ccccc2[nH]c1=O)N/N=C/c1ccccc1	·	8	6	-2	-0.5	-5
O=C(Nc1cccc(-n2cnnn2)c1)c1ccc(Cl)cc1Cl	2	-2	-20	-8	0.6	-18
COc1cccc(C2Cc3ccccc3C(=O)O2)c1 (stereo unspecified)	8	5	8	6	-0.7	-14
CC1CN(C(=O)CCc2ccccc2)C(C)CN1C(=O)CCc1ccccc1 (stereo unspecified)	7	13	47	-1	-0.6	-27
O=C(CN1CCN(c2ccccn2)CC1)Nc1cccc(Br)c1	5	1	2	-5	0.8	1
CSc1ncccc1C(=O)N(C)CC(=O)Nc1ccc(Cl)c(C(F)(F)F)c1	7	1	4	-8	0.3	-30
O=C1CN(C(=O)c2cc(F)cc(F)c2)c2ccccc2N1	-4	2	3	-12	-0.5	-1
CC1CN(C(=O)COC(=O)c2ccc3ccccc3c2)CC(C)O1 (stereo unspecified)	3	2	-13	·	0.0	-7
O=S(=O)(c1ccccc1Br)N(CC(O)COCc1ccccc1)C1CC1 (stereo unspecified)	10	1	16	·	-0.4	-6
CS(=O)(=O)Nc1ccc(C(=O)NCCSc2ccc(Cl)cc2)cc1	2	7	-12	11	0.7	-2
O=C(/C=C/c1ccc(F)cc1)Nc1ccc(S(=O)(=O)N2CCOCC2)cc1	?	-7	8	-1	0.1	-16
CCOC(=O)C1=CC[C@@H](c2ccc([N+](=O)[O-])cc2)N(S(=O)(=O)c2ccc(C)cc2)[C@H]1c1ccccc1	8	-5	78	·	6.0	-2

Entries of single compounds as entered above:
O=S(=O)(c1ccccc1Br)N(CC(O)COCc1ccccc1)C1CC1 (stereo unspecified) across the screens: CtBP-E1A inh = 10; Six1-Eya2 blk = 1; TRPML1 blocker = 16; TRPV1 potentiator = ·; TRPML1 agonist = -0.4; D2 potentiator = -6
CS(=O)(=O)Nc1ccc(C(=O)NCCSc2ccc(Cl)cc2)cc1 across the screens: CtBP-E1A inh = 2; Six1-Eya2 blk = 7; TRPML1 blocker = -12; TRPV1 potentiator = 11; TRPML1 agonist = 0.7; D2 potentiator = -2

The listing continues:
SMILES	CtBP-E1A inh	Six1-Eya2 blk	TRPML1 blocker	TRPV1 potentiator	TRPML1 agonist	D2 potentiator
Fc1ccc(NC(=S)N2CCCC2)cc1	0	11	-5	·	0.4	-3
Cc1cccc(CSCc2ccc(C(=O)NC3CCCC3)o2)c1	3	3	-14	-13	-0.6	2
CCOC(=O)c1ccccc1NC(=O)Cn1cnc2c(cnn2-c2ccccc2)c1=O	3	-1	-2	-8	1.2	2
Cc1cccc(C(=O)Nc2nnc(C3=COCCO3)o2)c1	0	-28	-10	1	1.4	-11
C=CCOc1nc2c(c(=O)n(C)c(=O)n2C)n1Cc1ccccc1Cl	3	-1	0	-16	1.6	-10
CCn1nc(C)c(/C=N\NC(=O)c2ccc3c(c2)OCO3)c1C	-2	0	10	0	0.2	-35
O=C(Nc1ccccc1N1CCN(C(=O)c2ccccc2)CC1)c1cc2ccccc2o1	8	2	18	-5	-0.9	-6
COC(=O)c1cc2occc2n1CC(=O)Nc1ccc(C)cc1C	-2	-1	38	-5	1.5	-29
Cc1ccc(SCC(=O)NC2CCCCCC2)cc1	15	-13	-13	-14	0.3	-8
Cc1cccc(C(=O)OC(C)C(=O)N2CCN(Cc3ccccc3)CC2)c1 (stereo unspecified)	2	-5	4	11	0.7	0
CN(CC(=O)Nc1ccc(Cl)c(C(F)(F)F)c1)C(=O)c1cnccn1	-11	-7	-9	·	0.3	-19
Cc1ccc(S(=O)(=O)N2CCN(C(=O)c3c(-c4ccccc4)noc3C)CC2)cc1C	0	9	-15	0	-0.7	-5
C=CCc1cc(C=O)cc(OCC)c1OCc1ccc(Cl)cc1	28	34	27	5	4.0	-6
Cc1cc(N)n(-c2cc(C)c3ccccc3n2)n1	-3	-4	-3	-4	0.8	-7
Nc1cc(=O)[nH]c(SCC(=O)Nc2ccccc2Sc2ccc(Cl)cc2)n1	0	-2	-1	4	-0.3	3
COCCNC(=O)c1nn(-c2cc(OC)cc(OC)c2)c(=O)c2ccccc12	-5	5	-21	-2	-0.1	-39
Oc1c(Br)cc(Br)cc1/C=N/c1nccs1	?	?	1	0	-0.2	-20
CCc1nn(C)c(N)c1C	7	22	-2	3	0.7	-5
COC(=O)C1=C(C)N(Cc2ccccc2)C(=O)N[C@H]1c1ccccc1	-9	-4	2	-4	2.7	-2
O=C(N/N=C/c1ccc(COc2ccc(Br)cc2)o1)c1ccco1	6	0	2	4	2.7	3
O=C(Nc1ccc(F)c(Cl)c1)c1ccccc1	8	6	16	9	0.2	-2
O=C(O)CCN1C(=O)c2ccccc2Sc2ncccc21	·	0	4	-5	2.3	24
Fc1ccc(CSc2nsc(SCc3ccc(F)cc3)n2)cc1	92	130	9	-3	2.7	-4
CC1(C)CC(=O)C(C(=O)CCCCC(=O)C2C(=O)CC(C)(C)CC2=O)C(=O)C1	10	4	-6	9	-0.3	8
Cc1noc(C)c1C(=O)OCC(=O)Nc1ccccc1C(=O)NC(C)c1ccccc1 (stereo unspecified)	2	-1	16	0	2.8	7
CCc1nnc(NC(=O)[C@@H]2CCCN2S(=O)(=O)c2ccc3c(c2)OCCO3)s1	-2	4	3	9	1.4	2
O=C(c1ccccc1)c1ccc(O)cc1O	-2	6	-3	-4	20	-8
Cc1cccc(NC(=O)c2cnc3ccccn3c2=O)c1	-17	4	-7	4	0.6	0
CCOC(=O)C1=C(COC(=O)CNC(=O)c2ccc(C(C)(C)C)cc2)NC(=O)NC1C (stereo unspecified)	-9	6	-8	?	0.3	11
Cc1ccc(C)c(OCC(=O)Nc2ccncc2)c1	·	-8	·	-5	·	-51

Not a retest: an excerpt of the list.
SMILES	CtBP-E1A inh	Six1-Eya2 blk	TRPML1 blocker	TRPV1 potentiator	TRPML1 agonist	D2 potentiator
O=C(Nc1ccc(F)c(Cl)c1)c1ccccc1	8	6	16	9	0.2	-2
O=C(O)CCN1C(=O)c2ccccc2Sc2ncccc21	·	0	4	-5	2.3	24

As entered above.
Cc1noc(C)c1C(=O)OCC(=O)Nc1ccccc1C(=O)NC(C)c1ccccc1 (stereo unspecified) | D2 potentiator: 7
Cc1ccccc1C1NC(=S)NC2=C1C(=O)CC(C)(C)C2 (stereo unspecified) | TRPML1 agonist: 1.6

Additional results follow:
SMILES	CtBP-E1A inh	Six1-Eya2 blk	TRPML1 blocker	TRPV1 potentiator	TRPML1 agonist	D2 potentiator
CSCCC(NC(=O)c1ccccc1Cl)C(=O)N1CCCC(C)C1 (stereo unspecified)	-18	7	11	·	0.4	2
COCC(C)NC(=O)C(C)Oc1ccccc1 (stereo unspecified)	0	8	2	0	0.7	-3
O=C(NCCN1C(=O)S/C(=C\c2cccnc2)C1=O)c1cccc(OC(F)F)c1	-4	-5	-9	3	-0.4	-11
COc1ccccc1Cc1c(-c2ccc(OC)c(OC)c2)nc2c3ccccc3ccn12	-3	-8	·	·	-0.4	-4
CC(C)C(=O)Nc1nnc(SCC(=O)Nc2ccc3c(c2)OCO3)s1	-1	10	-13	-4	2.3	-7
CCN(CC)C(=O)CSc1nc2c(sc(=S)n2-c2ccccc2)c(=O)n1-c1ccc(OC)cc1OC	·	-13	26	-17	1.9	-1
COc1cc(OC)c(C(=O)OC(C)C(=O)Nc2cccc(C(F)(F)F)c2)cc1OC (stereo unspecified)	-17	-6	12	24	1.2	-23
Cc1nnc2sc(-c3ccccn3)nn12	-6	-1	-5	2	0.5	-3
O=C(CCSCCc1ccccn1)Nc1ccccn1	-2	6	17	-1	0.3	-13
O=C(c1cccs1)N1CCN=C1SCc1ccc(F)cc1	7	6	·	23	·	-5
CCc1ccc(-c2ccc3nnc(SCC(N)=O)n3n2)cc1	·	4	5	0	0.5	2
COC(=O)c1[nH]c2ccc(C)cc2c1NC(=O)Oc1ccccc1	6	-4	2	-10	-0.3	15
Cc1cc(C)cc(N(CC(=O)Nc2cc(C)ccc2C)S(=O)(=O)c2c(C)[nH]c(=O)[nH]c2=O)c1	?	-9	0	4	-0.5	-11
Cc1ccc(-n2ncc(C(=O)O)c2C2CCN(C(=O)OC(C)(C)C)CC2)cc1	8	7	-7	-10	-0.4	-11
CCCn1c(N)c(C(=O)CN(C)CC(=O)Nc2ccccc2CC)c(=O)[nH]c1=O	4	1	4	5	1.6	0
CCOC(=O)C1C(=O)NC(N2CCOCC2)=NC1C(C)C (stereo unspecified)	1	26	21	6	-0.3	9
CN(CC(=O)NC1CCCCC1)S(=O)(=O)c1cccc2nsnc12	-8	4	-9	0	0.0	-9
COc1cc(CN2CCN(C(O)(c3ccccc3)c3ccccc3)CC2)cc(OC)c1OC	6	-4	-9	-5	1.3	-17
Cc1ccc(C)c(NC(=O)c2cnn(-c3ccccc3)c2C)c1	-5	7	-2	-1	0.4	1
O=C(COC(=O)c1cccc(Cl)c1)NC1CCS(=O)(=O)C1 (stereo unspecified)	·	-1	-7	21	-0.3	-1
O=C(C[n+]1cc(-c2ccc(Cl)c(Cl)c2)n2c1CCC2)c1cccs1	-17	1	1	5	0.1	-10
Cc1ccc(C2NC(c3ccc(C)cc3)C(C)C(=O)C2C)cc1 (stereo unspecified)	·	16	-2	-7	0.8	-11
CCN(CC(=O)Nc1ccc(NC(C)=O)cc1)C(=O)c1cc(-c2ccccc2Cl)nc2ccccc12	·	-12	2	·	-0.4	26
COCCNC(=O)C(=O)Nc1cc2c3c(c1)CC(=O)N3CCC2	·	9	-9	-11	0.0	-1
CCCN(C(=O)c1cc(S(=O)(=O)N2CCCCC2)ccc1Cl)C1CCS(=O)(=O)C1 (stereo unspecified)	·	5	1	-42	0.0	-9
CC(=O)Nc1ccc(S(=O)(=O)N(C)CC(=O)OC(C)C(=O)NC2CCCC2)cc1 (stereo unspecified)	1	0	-5	-1	0.0	16
Cc1ccc2nc(SCC(=O)c3c(N)n(C4CC4)c(=O)[nH]c3=O)[nH]c2c1	7	1	-3	-5	-0.8	-16
COC(=O)C(CCSC)NC(=O)Cn1ncc2c(=O)oc3ccccc3c21 (stereo unspecified)	0	0	-2	2	0.4	1

D2 potentiator, entries above that show a hit
molecule,CtBP-E1A inh,Six1-Eya2 blk,TRPML1 blocker,D2 potentiator
CC1=CC(C)(C)Nc2ccc(OC(=O)CN3C(=O)c4ccccc4C3=O)cc21,-26,?,5,113*
